Source: PubChem BioAssay
STK33 kinase inh – inhibitors of purified STK33 kinase, primary screen, biochemical, ADP-Glo luminescence, homogeneous, cell-free | Serine/threonine-protein kinase 33 (Homo sapiens), Q9BYT3 | MBP phosphorylation | inhibition, % at 10 µM | hit rate 0.073% among 320,000 | AID 2661, 2010;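 active = inhibition at or above 25%, using the most active replicate where run in duplicate; inactive = inhibition below 25%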
Target sequence (Q9BYT3 whole entry, looked up): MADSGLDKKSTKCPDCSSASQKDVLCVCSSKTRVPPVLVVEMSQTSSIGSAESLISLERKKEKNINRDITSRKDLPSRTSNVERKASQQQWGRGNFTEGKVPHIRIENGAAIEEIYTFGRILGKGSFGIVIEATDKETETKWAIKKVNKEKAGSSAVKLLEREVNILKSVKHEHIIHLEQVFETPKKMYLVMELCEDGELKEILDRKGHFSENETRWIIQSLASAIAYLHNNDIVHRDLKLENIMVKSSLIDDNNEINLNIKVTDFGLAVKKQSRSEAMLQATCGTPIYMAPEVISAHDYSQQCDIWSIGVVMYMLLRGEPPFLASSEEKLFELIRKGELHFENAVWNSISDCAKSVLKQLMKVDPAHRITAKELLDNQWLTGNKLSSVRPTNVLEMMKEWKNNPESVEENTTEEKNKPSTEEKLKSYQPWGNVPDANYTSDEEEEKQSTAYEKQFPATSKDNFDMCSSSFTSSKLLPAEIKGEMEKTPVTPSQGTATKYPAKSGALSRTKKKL
* marks the source's active call; other numbers are inactive results. Some of the compounds tested, and most or all hits are left out here.

The opening 4 compounds, to show the layout:
SMILES | STK33 kinase inh
CSc1nc(-c2ccccc2)nc(NC(=O)c2ccccc2)c1C(C)=O | -0.4
O=C(Oc1cc(=O)n2ccccc2n1)c1ccccc1 | 0.0
CN(CC(=O)Nc1ccccc1Br)C(=O)CCCSc1nc2ccccc2[nH]1 | -0.5
COCCNC(=O)CSc1nc(-c2ccc(OC)c(OC)c2)cc(C(F)(F)F)n1 | -0.2

All compounds of this part (from the top)
SMILES | STK33 kinase inh
CSc1nc(-c2ccccc2)nc(NC(=O)c2ccccc2)c1C(C)=O | -0.4
O=C(Oc1cc(=O)n2ccccc2n1)c1ccccc1 | 0.0
CN(CC(=O)Nc1ccccc1Br)C(=O)CCCSc1nc2ccccc2[nH]1 | -0.5
COCCNC(=O)CSc1nc(-c2ccc(OC)c(OC)c2)cc(C(F)(F)F)n1 | -0.2
CCCCC(SCC(=O)Nc1ccccc1)C(=O)O (configuration not stated) | -1.1
O=C(Nc1ccccc1C(=O)O)c1ccc2ccccc2n1 | 0.5
Cc1ccc(C)c(S(=O)(=O)/N=C2\C=C(NS(=O)(=O)c3ccccc3)C(=O)c3ccccc32)c1 | 3.1
CCNC(=O)CC1C(=O)N(CC)C(=S)N1NC(=O)c1ccc(Cl)cc1 (configuration not stated) | -0.2
O=S(=O)(Nc1ccncc1Cl)c1ccc2ccccc2c1 | -0.9
Nc1ccc(S(=O)(=O)c2ccc(Cl)cc2)cc1 | -1.6
C1CCC(OCCN2CCN(CCOC3CCCCC3)CC2)CC1 | 0.7
O=C(c1cccc2ccccc12)N1CCN(CC2CC=CCC2)CC1 (configuration not stated) | -1.3
CCOC(=O)C1CCN(C(=O)/C=C/c2cc(OC)c(OC)c(OC)c2)CC1 | 0.1
COc1ccc(OC)c(N(CC(=O)NCCc2ccc(OC)c(OC)c2)S(=O)(=O)c2ccccc2)c1 | -0.4
Cc1ccc(NC(=O)C/C(N)=N/O)cc1Cl | -1.3
CCOC(=O)CNC(=O)CSc1ncnc2c1cnn2Cc1ccccc1 | -0.4
Cc1cccc(CN(C(=S)Nc2c(C)cccc2C)c2cccnc2)c1 | 0.0
O=C(Nc1ccccn1)N1CCOCC1 | -0.8
COC(=O)c1nnn(CC(=O)NC(=O)Nc2c(C)cccc2C)c1C(=O)OC | -1.6
O=C(COC(=O)C1=COCCO1)Nc1ccccc1OC(F)F | 0.0
CN1CCN(c2ccccc2NC(=O)c2cc(Br)ccc2Cl)CC1 | 4.3
CCCOc1cc(C)c(S(=O)(=O)n2nnc3ccccc32)cc1C | -1.4
O=C(O)CCCC(=O)Nc1cc([N+](=O)[O-])ccc1O | -0.4
O=C(CCC(=O)N1CCSc2ccccc21)NCc1cccc(Cl)c1 | -0.4
Cc1ccc(C)c(N2CCN(C(c3ccc(N(C)C)cc3)c3nnnn3C(C)(C)C)CC2)c1 (configuration not stated) | -1.1
O=C1c2ccncc2C(=O)N1CO | 1.5
CC(=O)c1cccc(NC(=O)CN(C)S(=O)(=O)c2ccccc2)c1 | -0.9
Cc1ccc(-n2nc(C(=O)O)c3ccccc3c2=O)cc1C | -1.9
COc1cccc(C(=O)/C=C/c2ccc(SC)cc2)c1 | 0.4
CC(C)c1ccc(C(O)Cc2nc3ccccc3n2C)cc1 (configuration not stated) | -2.2
O=C(COc1ccc(S(=O)(=O)N2CCCC2)cc1Cl)NC1CC1 | 12.5
CN(CC(=O)Nc1ccccc1N1CCOCC1)CC(=O)Nc1ccc(F)c(F)c1F | -1.6
Cc1cccc(Nc2ccc([N+](=O)[O-])cn2)c1 | 2.3
CCc1c(C)nc(SCC(=O)c2ccc(C)c(C)c2)[nH]c1=O | -0.7
Nc1cccc(P(=O)(c2ccccc2)c2ccccc2)c1 | -1.1
COC(=O)c1cc2ccccc2c(-c2c(O)ccc3ccccc23)c1O | -1.5
CN(CCc1ccccn1)S(=O)(=O)c1ccc(F)cc1 | -0.1
Cc1ccc(CCNC(=O)C2CCN(S(=O)(=O)c3cccc4nsnc34)CC2)cc1 | -2.1
Cc1ccc(Nc2nc(N3CCOCC3)nc(N3CCOCC3)n2)cc1C | -0.6
CCOC(=O)c1cccc(NC(=O)CCc2nnc3ccc(N4CCOCC4)nn23)c1 | -0.9
C=CCC1(CC=C)CCCN1C(=O)C1CCC(=O)N(CCc2ccccc2)C1 (configuration not stated) | -0.2
Cc1ccc(F)cc1NC(=O)CSc1ncccn1 | -0.7
CNC(=O)c1c[nH]n2c(=O)c(Cc3ccccc3F)c(C)nc12 | 3.0
Cc1cc(C)n2nc(SCCCC(=O)c3ccc(F)cc3)nc2n1 | -0.4
COc1ccccc1S(=O)(=O)Nc1ccc2cn[nH]c2c1 | 0.3
COc1cc(/C=C2\SC(=O)N(CC(=O)Nc3ccc(C)cc3)C2=O)cc(Cl)c1OCC(=O)O | -0.7
CCN1CC(C)C(O)(c2ccccc2)CC1C (configuration not stated) | -0.2
CCNC(=O)c1ccc2c(c1)C1C3CCC(C3)C1C(c1ccccc1)N2 (configuration not stated) | -0.2
O=C(O)c1[nH]c2ccccc2c1C(c1cc(Br)ccc1O)c1c(C(=O)O)[nH]c2ccccc12 | 8.9
COc1ccccc1N1CCN(C(CNS(=O)(=O)c2ccccc2)c2cccnc2)CC1 (configuration not stated) | -0.3
O=C(CCCCCN1C(=O)c2ccccc2C1=O)Nc1nccs1 | -0.4
Cc1ccc(C(C(=O)NC2CCCCC2)N(Cc2ccco2)C(=O)C2COc3ccccc3O2)o1 (configuration not stated) | 1.2
N#Cc1cccc(NC(=O)CNc2cccc(S(=O)(=O)N3CCCCC3)c2)c1 | -0.2
Cc1cccc(C)c1OCc1nnc(SCC(=O)Nc2nccs2)o1 | -1.6
O=C(COc1ccc(Br)cc1)NN1C(=O)c2ccccc2C1=O | 0.6
Nc1nc(NCc2ccco2)nc(NC2CCCCC2)c1[N+](=O)[O-] | -1.2
CC(=O)N1c2ccc(S(=O)(=O)N3CCCC3)cc2CC1C(=O)NCc1ccc(N(C)C)cc1 (configuration not stated) | -0.4
CCCOc1ccc2c(=O)c(-c3cc(C(=O)OC)oc3C)c(C)oc2c1 | -1.9
COc1ccc(NC(=O)Cc2c(O)c3ccccc3[nH]c2=O)cc1 | -1.1
N#Cc1cc2c(nc1SCC(N)=O)CCCCC2 | -0.3

A draw from above in order of length of the SMILES, lowest first:
SMILES | STK33 kinase inh
O=C(CCCCCN1C(=O)c2ccccc2C1=O)Nc1nccs1 | -0.4
Cc1cccc(C)c1OCc1nnc(SCC(=O)Nc2nccs2)o1 | -1.6
CC(=O)N1c2ccc(S(=O)(=O)N3CCCC3)cc2CC1C(=O)NCc1ccc(N(C)C)cc1 (configuration not stated) | -0.4

More entries
SMILES | STK33 kinase inh
CCC(C)c1ccc(OCC(=O)Nc2ccc3c(c2)C(=O)NC3=O)cc1 (configuration not stated) | -0.5
Cc1ccc(-c2cnco2)cc1 | -1.8
COC(=O)c1ccc(CNC(=O)COC(=O)c2ccccc2-c2ccccc2)cc1 | -1.9
CSc1ccccc1C(=O)NCc1ccc(S(N)(=O)=O)cc1 | 0.6
CCOc1ccc(C(=O)Oc2ccc(NC(C)=O)cc2)cc1 | -0.3
O=C(Nc1cnc2ccccc2c1)c1ccncc1 | 2.7
CCOc1cc(CO)cc(Br)c1OCC(=O)O | 0.1
O=C(NC1CCSc2ccccc21)c1ccc(F)cc1 (configuration not stated) | -3.5
CCOC(=O)N1CCN(CC(O)c2ccccc2)CC1 (configuration not stated) | -1.1
Cc1cccc(NC(=O)CSc2nc3c([nH]c4ccccc43)c(=O)n2C)c1 | 2.0
CCOc1cccc(-c2nnc3n2N=C(c2cc(OC)ccc2OC)CS3)c1 | 1.0
COc1ccc(CCNc2ccc(C)cc2)cc1 | -0.1
O=[N+]([O-])c1ccc(-n2nnnc2CN2CCOCC2)cc1 | -1.8
COc1cc(NC(=O)CCc2nnc3ccc(N4CCCCC4)nn23)cc(OC)c1OC | 0.1
Cc1[nH]c2ccccc2c1C(c1ccccn1)N1CCC(C(N)=O)CC1 (configuration not stated) | 1.2
C=CCc1c(C)nc(C)nc1N/N=C/c1ccc(F)cc1 | -1.7
Cc1cc(Cl)ccc1OCC(=O)NC(=S)Nc1ccc(Cl)cn1 | 0.2
O=C(COc1ccccc1)NC1CCCc2ccccc21 (configuration not stated) | 0.1
CCCCCCCCCCCCN1[C@@H](CC(C)=O)c2cc(F)ccc2S1(=O)=O | -0.1
O=C(Cn1nc(-c2ccc(Cl)cc2)ccc1=O)N1CCN(c2ccccc2)CC1 | -0.7

6 compounds out of the list above, sorted by their value in STK33 kinase inh, highest first:
SMILES | STK33 kinase inh
O=C(Nc1cnc2ccccc2c1)c1ccncc1 | 2.7
Cc1cccc(NC(=O)CSc2nc3c([nH]c4ccccc43)c(=O)n2C)c1 | 2.0
CSc1ccccc1C(=O)NCc1ccc(S(N)(=O)=O)cc1 | 0.6
CCOc1cc(CO)cc(Br)c1OCC(=O)O | 0.1
CCC(C)c1ccc(OCC(=O)Nc2ccc3c(c2)C(=O)NC3=O)cc1 (configuration not stated) | -0.5
O=C(Cn1nc(-c2ccc(Cl)cc2)ccc1=O)N1CCN(c2ccccc2)CC1 | -0.7

More structures
SMILES | STK33 kinase inh
COc1ccc(C(CC(=O)N2CCOCC2)c2c(O)cc(OC)cc2OC)cc1 (configuration not stated) | 1.7
CSc1nc(S(=O)(=O)c2ccccc2)c(Cl)s1 | -2.0
Cc1nn(C)c(C(=O)N2CCOCC2)c1Cl | -1.0
CCOc1ccccc1NC(=O)c1nc(-c2ccccc2)oc1C | -0.7
CCOC(=O)N1CCN(C(=O)CCSc2ccccc2)CC1 | -0.5
Cc1sc(NC(=O)CN2CCOCC2)c(C#N)c1C | -1.5
C=CCn1c(SCC(=O)c2cc(C)n(C)c2C)nnc1-c1ccncc1 | -0.3
Cc1ccc(N2C(=O)c3ccccc3C2C(=O)c2ccc(C)c(C)c2O)cc1 (configuration not stated) | -0.8
CCC(CC)N1CCN(S(=O)(=O)c2ccc(OC)cc2)CC1 | -1.6
COCCNC(=O)C(NC(=O)C1CCCCC1)C(C)C (configuration not stated) | -2.0
Cc1sc2nc(COC(=O)c3cccc(OC(F)F)c3)[nH]c(=O)c2c1C | 0.2
Cc1ccc(-c2csc(NC(=O)CSc3nc(C)cs3)n2)cc1 | -1.4
O=C(COC(=O)CNC(=O)c1ccccc1)Nc1ccccc1Cl | -0.6
O=C(NCc1ccccn1)c1cccc([N+](=O)[O-])c1 | -0.3
CSc1ccc(/C=C2\CCn3c2nc2cc(C(=O)O)ccc2c3=O)cc1 | 5.7
O=C1CCCN2N=C(SCC(=O)Nc3ccc(OC(F)(F)F)cc3)SC2=N1 | 0.2
CC(C)CNC1=C(C(=S)Nc2ccccc2)C(=O)CC(C)(C)C1 | -0.2
Cc1nc2ccc(NC(=S)N3CCN(c4ccccn4)CC3)cc2nc1C | -1.0
Cc1c(Cl)cccc1NC(=O)CS(=O)(=O)c1ccccc1 | -1.5
CCSc1nc2c(c(=O)[nH]1)C(c1cccs1)C(C(=O)OC)=C(C)N2 (configuration not stated) | 0.7
COc1ccc(NC(=S)Nc2ccc(C)c(S(=O)(=O)N3CCCCC3)c2)cc1 | -2.4
CCCn1c(=N)c(C(=O)NCC2CCCO2)cc2c(=O)n3cccc(C)c3nc21 (configuration not stated) | -1.3
COc1cc(OC)cc(-c2nnc(SCC(=O)N3CCCC3)o2)c1 | -0.3
CCc1nnc(NC(=O)CSCc2cc(=O)n3ccsc3n2)s1 | -1.0
COCCNC(=O)CS(=O)Cc1nc(-c2ccc(OC)cc2)oc1C (configuration not stated) | -1.4
CCOCCCNC(=O)c1c[nH]c2cc(C)ccc2c1=O | 1.2
Cc1ccc(S(=O)(=O)NNC2=NCCCCC2)cc1 | 0.1
CSc1ccccc1NC(=O)COC(=O)c1ccccc1O | -1.2
Cc1c(-c2nnc(-c3ccc(C(F)(F)F)cc3)o2)cnn1-c1ccccc1 | -0.4
NC(=O)c1ccc(NC(=O)c2ccccc2S(=O)(=O)c2ccccc2[N+](=O)[O-])cc1 | -2.1
O=C(N/N=C\c1ccc2c(c1)OCO2)c1ccco1 | 2.1
CCn1nnnc1SCC(=O)c1ccc2c(c1)OCCO2 | -1.4
COc1ccccc1C(=O)Nc1cccc(NC(=O)c2ccccc2OC)n1 | -4.6
CCOC(=O)Nc1ccc2c(COC(=O)CNS(=O)(=O)c3ccc(NC(C)=O)cc3)cc(=O)oc2c1 | -0.9
CCn1cc2nc(SCC(=O)Nc3ccc(OC)cc3OC)n(Cc3ccc(OC)cc3)c(=O)c2n1 | -1.1
COc1cc(C(=O)COC(=O)c2cnc(C)cn2)ccc1OC(F)F | 0.6
CC(=O)C1C(c2ccccc2OC(F)F)NC(=O)NC1(O)C(F)(F)F (configuration not stated) | -0.6
Cn1c(=O)c2cc3ccccc3nc2n(C)c1=O | -2.2
CC(C)Cn1c(CNC(=O)c2ccccc2)nc2ccccc21 | 0.8
CCOC(=O)c1nnn(-c2nonc2N)c1COc1cc(C)c(Cl)c(C)c1 | -2.0
Cc1cccc(N(CC(=O)NCCc2ccccc2)C(=O)CCC(=O)Nc2ccccn2)c1C | -0.7
COc1cccc(CN2CCC(n3nccc3NC(=O)CCCc3ccccc3)CC2)c1O | 0.1
O=C(COC(=O)c1nc(Cl)ccc1Cl)NC(=O)c1ccccc1 | -2.9
CCO[C@@H]1OC(C(=O)N2CCN(Cc3ccc4c(c3)OCO4)CC2)=C[C@H](c2coc3ccccc3c2=O)[C@H]1CCCO | 1.1
COc1ccc(CCNS(=O)(=O)c2ccc3c(c2)NC(=O)CS3)cc1OC | -1.8
CCCCOc1ccccc1C(=O)NNC(=S)NC(=O)c1ccccc1[N+](=O)[O-] | -1.6
COc1ccc(Nc2ncc3c(n2)CC(c2ccc(OC)cc2)CC3=O)cc1 (configuration not stated) | -0.4
CCC1CCCCN1CCCNC(=O)Cn1cc2c(n1)-c1c(oc(C(=O)N3CCCC3)c1C)CC2 (configuration not stated) | -0.5
Cn1c(NCc2ccco2)nc2ccccc21 | -1.1
CC(C)c1ccc(NC(=O)C2CCN(S(=O)(=O)c3ccc4c(c3)C(C)(C)C(=O)N4C)CC2)cc1 | 0.8
CC(NC(=O)C(C)N1CCN(Cc2ccccc2)CC1)c1ccccc1 (configuration not stated) | -0.7
COC(=O)c1ccc(N2CCN(C)CC2)c(NC(=O)COc2ccccc2)c1 | -1.5
CCOc1ccc(C(=O)N2CCCCCC2)cc1 | -3.1
CCCOc1ccc(C(=O)Nn2c(C)nc3ccccc3c2=O)cc1 | -1.7
